HTT prom inh: inhibitors of huntingtin promoter activity. HEK293 HTT promoter firefly luciferase reporter (activity 0% = vehicle and -100% = no light), 24 h. Potency, µM (highest dose often 57.5 µM), for inactives: top-dose activity change, negative = inhibition, usual class: inhibitors. 48,000 compounds, 0.93% hits. AID 1508623; active means well fitted inhibition curve with a large enough effect; inconclusive means small, poorly fitted or top-dose-only effect; inactive means no such curve, though single readings can be large or run the other way; further: nearly all actives have a fitted effect of over 50% in size
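HEK293 luciferase promoter-reporter cells (2,500/well) plated 24 h, then compounds added at up to 57.5 uM final for 24 h at 37 °C. Firefly luminescence by Dual-Glo, normalized to vehicle (0%) and zero RLU (-100%).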
PMP22 txn: modulators of PMP22 gene transcription in S16 Schwann cells. S16 Pmp22-F2sN Schwann cells (luciferase reporters placed in the Pmp22 gene), FLuc/NLuc coincidence luminescence, 24 h. Potency, µM (doses to about 57.5 µM), inactives show at the top dose activity change, negative = inhibition, hits mostly inhibitors. 43,000 compounds, 2% hits; active = clear falling dose curves in both reporters; inconclusive = both reporters move, but less clearly or upward; inactive = either reporter flat; the % is the NLuc reporter signal; further: on the % scale 0 is the no-effect control and ±100 the full control effect; some results filed as inactive show a strong effect at the top dose
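Luminescent read-out of sequential FLuc and NLuc signals from a reporter embedded in the Pmp22 3' UTR of S16 Schwann cells, taken after 24 h compound exposure at 37C; compounds reducing both signals score as inhibitors of expression.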
The depositor's hits bear a star; ? = inconclusive; / = not tested or not shown; & = joins results of further samples; [ ] = remark or other dose. Potency means the concentration at half of the fitted maximal effect. An unsorted share of the library; any-hit rate near 2.4%.

smiles	HTT prom inh	PMP22 txn
O=c1c(-c2cc(-c3ccccc3)nc3c2COc2ccccc2-3)coc2ccc(Cl)cc12	-18.6%	0.8%
Cc1c(C(=O)Nc2ccccc2Cl)oc2ccc(S(=O)(=O)N3CCCCCC3)cc12	-15.8%	-16.0%
COc1ccc(NC(=O)CN(C)S(=O)(=O)c2ccc3[nH]c4c(c3c2)CCCC4)cc1Cl	0.0%	?
Cc1oc2c(c1C(=O)Nc1cccc(Br)c1)C1=NCCN1C=N2	-5.0%	-28.2%
O=C(C1CCCCC1)N1CC(=O)N2CCc3ccccc3C2C1 (stereo not drawn)	-3.5%&-4.9%	/
CCCn1cc(S(=O)(=O)c2ccc(CC)cc2)c(=O)c2cc(F)c(N3CCN(C)CC3)cc21	6.4%	2.3%
CCOC(=O)c1ccc(N2C(=O)c3n[nH]c(-c4cccs4)c3C2c2cccc(O)c2)cc1 (stereo not drawn)	?	?
CCc1ccc(-c2nc(CN3CCC(C(=O)NCCc4ccc(Cl)cc4)CC3)c(C)o2)cc1	-2.7%	16.3µM*
O=C(CCn1c(=O)c2cccn2c2ccc(F)cc21)NCCc1ccc(Cl)cc1	2.1%	?
COCCn1c(SCC(=O)Nc2ccc(Br)cc2)nc2c([nH]c3ccccc32)c1=O	-2.8%	?
O=C1CN(C(=O)COc2ccc(Cl)cc2)C(c2ccc(F)cc2)c2cc(Cl)ccc2N1 (stereo not drawn)	?	?
COc1ccc(OC)c(NC(=O)CC(=O)Nc2ccc3nc4n(c(=O)c3c2)CCCCC4)c1	-23.9%	-21.1%
Cc1csc(NC(=O)c2sc3nc4c(c(C(F)(F)F)c3c2N)CCC4)n1	?	/
Cc1ccc(S(=O)(=O)N2CCc3cc(C(=O)N(C)Cc4ccccc4)ccc32)cc1	?	?
COc1cccc(CNC(=O)Cn2ncc3c(=O)oc4ccccc4c32)c1	-5.7%	-24.1%
Cc1cc(C)n(-c2nc3ccccc3nc2Nc2ccc(N(C)C)cc2)n1	-4.6%	0.9%
CCn1c2ccccc2c2cc(CN3CCN(Cc4ccccc4F)CC3)ccc21	?	-29.6%
CCOc1ccccc1NC(=O)Cn1c(=O)n(Cc2ccccc2)c(=O)c2c(C)c(C)sc21	-18.8%	1.6%
CCOCCSc1c(C)cnc2c1c(=O)n(C)c(=O)n2C	?	-5.2%
COc1ccc(-c2noc(-c3ccc(NCc4cccnc4)c([N+](=O)[O-])c3)n2)cc1OC	0.3%	0.5%
O=C(CSC1=Nc2ccccc2C2=NC(Cc3ccccc3)C(=O)N12)Nc1cccc(Cl)c1 (stereo not drawn)	?	39.1%
CCN(C(=O)Cn1c(SCc2ccccc2F)nc2cccnc21)c1ccccc1	3.6%	-86.2%
Cn1c(=O)c2cc(C(=O)NCCCN3CCN(c4ccc(F)cc4)CC3)sc2c2ccccc21	-16.4%	18.9µM*
Cc1ccc(CNC(=O)Cn2c(=O)cc(-c3ccccc3)c3c(C)nn(C)c32)cc1	0.0%	-0.7%
Cn1cc(C(=O)N2CCN(c3cccc(Cl)c3)CC2)c(=O)c2cc(S(=O)(=O)N3CCCC3)ccc21	-4.6%	-20.8%
Cc1nc(Nc2ncc(C(=O)Nc3c(C)cccc3Cl)s2)cc(N2CCN(CCO)CC2)n1	?	/
CCOC(=O)c1cc(-c2ccccc2)n(CCC(=O)Nc2ccc(C(F)(F)F)cc2)c1C	?	?
CCCCNC(=O)C1=CC(c2ccc3c(c2)OCO3)=NS(=O)(=O)N1C	-11.9%	3.2%
Cc1nn(C)c2c1c(C(F)(F)F)cc(=O)n2CC(=O)N1CCN(c2ccccc2F)CC1	-2.1%	-13.3%
CC(C)c1ccc(C2NC(=O)c3n[nH]c(-c4cccs4)c32)cc1 (stereo not drawn)	?	-25.3%
CCOc1ccc2nc(N(Cc3cccnc3)C(=O)c3ccc4c(c3)OCCO4)sc2c1	-5.1%	?
O=C(COc1ccc(F)cc1)NCc1ccc2c(c1)CCN2C(=O)c1ccccc1	-4.0%	10.6%
Cn1nnc2c(N3CCCCC3)ncnc21	10.0%	-14.3%
O=C(N/N=C/c1ccc([N+](=O)[O-])o1)c1ccc(O)cc1	?	/
CN1C(=O)c2[nH]nc(-c3ccc(F)cc3)c2C1c1ccccn1 (stereo not drawn)	-6.5%	-5.8%
C[C@H]1[C@H]2CC[C@H]3[C@@H]4CC=C5C[C@@H](N(C)C)CC[C@]5(C)[C@H]4CC[C@]23CN1C	-8.2%	/
CN1N=C(N)c2cn([C@@H]3O[C@H](COP(=O)(O)O)[C@@H](O)[C@@H]3O)c3ncnc1c23	-15.3%	/
Cc1ccc(NC(=O)C2CCCN(c3cnccn3)C2)cc1Cl (stereo not drawn)	-2.7%	-12.7%
Cc1c(-c2nsc(NC(=O)c3cccs3)n2)nnn1-c1ccc(Cl)cc1	22.3%	6.3%
COc1ccc(CCNC(=O)C2CCCN(S(=O)(=O)c3ccc4c(c3)oc(=O)n4C)C2)cc1OC (stereo not drawn)	?	-12.4%
COc1ccccc1NC(=O)c1oc2ccccc2c1NC(=O)c1cccc(OC)c1OC	-25.3%	?
CCCCNC(=O)c1ccc2c(c1)N(CC)C(=O)c1ccccc1S2	-27.8%	-19.5%
O=C(NCCCc1nc2ccccc2n1Cc1ccc(Cl)cc1)C1CCCCC1	-27.9%	?
Cc1cnc(Nc2ccc(OCCN3CCCC3)cc2)nc1Nc1cccc(S(=O)(=O)NC(C)(C)C)c1	-5.2%	/
CCCCCNC(=O)C1CCC(Cn2c(=O)c3sccc3n(CC(=O)N3CCCC3)c2=O)CC1 (stereo not drawn)	13.7%	7.6%
CCCNC(=O)C1CCC(CNS(=O)(=O)c2ccc3c(c2)CC(C)N3C(C)=O)CC1 (stereo not drawn)	-14.0%	-27.5%
CCCCSCCCNC(=O)c1cc(-c2cccnc2)nc2ccc(S(=O)(=O)N3CCC(C)CC3)cc12	-4.4%	-7.2%
O=C(Cc1ccc(NC(=O)N2CCCCc3ccccc32)cc1)NCc1cccc(Br)c1	-14.2%	-0.2%
COc1ccc(N2CCN(Cc3cccn3-c3nnc(N4CCN(C5CCCCC5)CC4)s3)CC2)cc1	-34.4%	?
CCOc1ccc(NC(=O)Cn2cc(C(=O)c3ccc(C)cc3)c(=O)c3cc4c(cc32)OCO4)cc1	-13.5%	?
COC(=O)Cn1c(=NC(=O)c2ccc3c(c2)OCCO3)sc2ccccc21	26.0%	7.8%
COc1ccc(CNC(=O)CCCn2ccc3cc(S(=O)(=O)N4CCCC4)ccc32)cc1	?	?
CC1=C(C(=O)Nc2cccnc2)C(c2ccccc2)n2nc(SCc3ccccc3F)nc2N1 (stereo not drawn)	-27.5%	-2.1%
COc1cc(C(=O)Nc2sc3c(c2C(N)=O)CCC(C)C3)cc(OC)c1OC (stereo not drawn)	3.8%	7.3%
CCc1nnc(SCc2nc(-c3ccccc3)oc2C)c2cc3sccc3n12	-9.5%	-4.3%
CCCCCn1c(=O)[nH]c2cc(C(=O)NCc3ccc(OC)cc3)ccc2c1=O	-9.8%	3.2%
O=S(=O)(NCCSc1nnnn1-c1ccccc1)c1ccc(F)cc1	-18.1%	?
O=S(=O)(NCCc1ccc(Cl)cc1)c1ccc(N2CCCCS2(=O)=O)cc1	?	?
COc1ccc(-n2c(=O)c3c4c(sc3n(Cc3ccccc3)c2=O)CN(C(C)=O)CC4)cc1OC	-12.0%	?
Cc1ccc(Cl)cc1Nc1nn2c(=O)c3ccc(C(=O)N4CCCC(C)C4)cc3nc2s1 (stereo not drawn)	?	?

Copied from the listing (three entries):
smiles	HTT prom inh	PMP22 txn
O=S(=O)(NCCc1ccc(Cl)cc1)c1ccc(N2CCCCS2(=O)=O)cc1	?	?
COc1ccc(-n2c(=O)c3c4c(sc3n(Cc3ccccc3)c2=O)CN(C(C)=O)CC4)cc1OC	-12.0%	?
Cc1ccc(Cl)cc1Nc1nn2c(=O)c3ccc(C(=O)N4CCCC(C)C4)cc3nc2s1 (stereo not drawn)	?	?

(listing goes on)
smiles	HTT prom inh	PMP22 txn
COc1cc(C2C(C(=O)Nc3ccccc3)=C(C)Nc3nnnn32)cc(OC)c1OC (stereo not drawn)	-8.2%	-25.2%
Cc1c(NC(=O)c2ccc(C(C)(C)C)cc2)cccc1-c1cn(C)c(=O)c(Nc2ccc(C(=O)N3CCOCC3)cc2)n1	-16.0%	/
Cc1ncc(CO)c(CO)c1O	6.7%	/
CCOC(=O)C1CCC(CN(Cc2ccccc2)S(=O)(=O)c2ccc(Br)cc2)CC1 (stereo not drawn)	-14.3%	-2.9%
Cc1oc(-c2cccc(Cl)c2)nc1CS(=O)(=O)CC(=O)NCc1ccccc1Cl	-12.2%	-2.4%
Cc1ccc(-n2ncc3c(N4CCCCCC4)ncnc32)cc1C	?	6.4%
COc1ccc(Cl)cc1NC(=O)CSc1nc2c([nH]c3ccccc32)c(=O)n1-c1ccccc1	?	?
Oc1ccc(C(O)CNCCCCCCNCC(O)c2ccc(O)c(O)c2)cc1O (stereo not drawn)	-5.6%	/
CCc1ccc(-c2nc3c(c(SCc4ccccc4)n2)Cc2c(CO)cnc(C)c2O3)cc1	-16.0%	-6.6%
CC(C)c1ccc(Nc2ncnc3onc(-c4ccc(F)cc4)c23)cc1	-18.4%	-1.4%
O=C(CCCCn1c(=O)c2ccccc2n(CC(=O)Nc2cccc(F)c2)c1=O)NCc1ccccc1Cl	-2.5%	?
COc1ccc(C2CC(=O)NC(NC(=O)c3ccc(Br)cc3)=N2)c(OC)c1OC (stereo not drawn)	-20.9%	-12.0%
CCSc1ncc(Cl)c(C(=O)Nc2ccc(S(=O)(=O)Nc3nccc(C)n3)cc2)n1	-15.2%	5.8%
Cc1nc(-c2ccc(C)c(S(=O)(=O)N3CCC(C(=O)NCc4ccc(F)cc4)CC3)c2)no1	?	?
Cc1ccc(Cn2c(C)c3cnn(CC(=O)NCCc4ccc(Cl)cc4)c(=O)c3c2C)cc1	-9.7%	-18.0%
Cc1ccc(C)c(CN2C(=O)c3ccccc3S(=O)c3ccc(C(=O)NCc4ccccc4Cl)cc32)c1 (stereo not drawn)	-12.6%	-28.9%
Cc1cccn2c(=O)c3cc(C(=O)NCc4ccccc4)c(=N)n(CCOCCO)c3nc12	-2.4%	?
Cc1ccc2oc(=O)c3cc(C(=O)N(Cc4ccccc4)C(C)C)sc3c2c1	-10.7%	?
O=S(=O)(c1cccc(C(F)(F)F)c1)N1CCC(Oc2ccc(-n3cnnn3)cc2)CC1	-23.8%	-25.0%
Cc1cccc(NC(=O)c2sc3nc(N4CCOCC4)c4c(c3c2N)CC(C)(C)OC4)c1	37.0%[activator]	?
Cc1ccccc1NC(=O)c1ccccc1NC(=O)c1ccccc1F	7.9%	27.9%
Cc1ccc(OCc2nc3ccccc3n2CC(C)C)cc1	-5.6%	-51.5%
Clc1ccc(-c2nnn3c2nc(N2CCCCC2)c2ccccc23)cc1	-1.6%	1.6%
CCS(=O)(=O)c1cccc(-c2cc(C(=O)NC3CCN(C)CC3)c(C)c3[nH]c4ncc(C)cc4c23)c1	?	/
O=Nc1c(-c2c(O)[nH]c3cc(Br)ccc23)[nH]c2ccccc12	-7.5%	/
Cc1ccc(C)c(N2CCN(S(=O)(=O)c3ccc(-c4cnc(C5CC5)o4)cc3)CC2)c1	-18.1%	?
CCC(=O)N1CCc2cc(S(=O)(=O)Nc3cc(C)ccc3OC)ccc21	?	?
N#Cc1ccc(-c2cccs2)nc1SCc1ccc(Br)cc1	12.7%	-59.9%
COc1ccccc1C(=O)NCC(c1ccc(N(C)C)cc1)N1CCc2ccccc21 (stereo not drawn)	-4.6%	-29.6%
CCc1ccc(CSc2nc(-c3ccccc3OC)nc3c2Cc2c(CO)cnc(C)c2O3)cc1	-21.4%	6.4%
CCc1ccc(-n2nc(C)c3c(C)cc(=O)n(CC(=O)NCc4ccc(C)cc4)c32)cc1	-8.5%	-32.9%
Cc1cc(C)n2nc(SCC(=O)Nc3cc(Cl)ccc3C)nc2n1	-8.7%	0.0%
CCN(c1ccccc1)S(=O)(=O)c1nnc(NC(=O)c2ccccc2OC)s1	-13.3%	26.3%
O=S(=O)(c1ccc(Cl)cc1)c1nc(-c2ccco2)oc1SCc1ccc(F)cc1	?	?
CN(C)c1ccc(CN(CC2CCCO2)C(=O)COc2ccc(Cl)cc2)cc1 (stereo not drawn)	-29.4%	-16.2%
Cc1ccc(C)c(Cn2c(=O)n(Cc3ccccc3)c(=O)c3sc4ccccc4c32)c1	-15.6%	-24.9%
COCCn1c(=N)c(C(=O)NC2CCCC2)cc2c(=O)n3cc(C)ccc3nc21	-3.2%	-14.1%
